Compound activity (PubChem)
Six1-Eya2 inh – qHTS Assay for Inhibitors of the Six1/Eya2 Interaction; actives 0.56% (n = 360,000); AlphaScreen GST-Six1/His-Eya2 binding, biochemical; active compounds read low; control for the full effect not named in the record; activity change, % (concentration not given with the values); Homeobox protein SIX1 (Homo sapiens) + Protein phosphatase EYA2 (Homo sapiens), …; in the data active = activity change below about -65%; inconclusive = about -30% to -65%; inactive = above about -30%; also: % is scaled to controls: 0 for no effect and ±100 for the full control effect
Target sequence (O00167 whole entry, looked up): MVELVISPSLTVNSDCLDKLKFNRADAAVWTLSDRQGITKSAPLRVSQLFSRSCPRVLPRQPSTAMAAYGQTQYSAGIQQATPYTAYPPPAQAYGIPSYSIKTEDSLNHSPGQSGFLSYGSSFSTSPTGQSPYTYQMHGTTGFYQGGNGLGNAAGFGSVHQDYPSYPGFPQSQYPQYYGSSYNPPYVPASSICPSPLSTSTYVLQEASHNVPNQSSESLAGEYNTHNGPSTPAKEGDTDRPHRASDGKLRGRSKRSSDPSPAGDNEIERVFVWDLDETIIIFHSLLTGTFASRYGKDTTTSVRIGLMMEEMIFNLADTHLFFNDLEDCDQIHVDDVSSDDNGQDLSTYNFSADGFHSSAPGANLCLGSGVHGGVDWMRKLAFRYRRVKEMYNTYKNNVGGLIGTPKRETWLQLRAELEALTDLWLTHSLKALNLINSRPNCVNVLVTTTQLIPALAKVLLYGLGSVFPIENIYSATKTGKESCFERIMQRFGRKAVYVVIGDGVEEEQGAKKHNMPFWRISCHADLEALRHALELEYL
Target sequence (Q15475 whole entry, looked up): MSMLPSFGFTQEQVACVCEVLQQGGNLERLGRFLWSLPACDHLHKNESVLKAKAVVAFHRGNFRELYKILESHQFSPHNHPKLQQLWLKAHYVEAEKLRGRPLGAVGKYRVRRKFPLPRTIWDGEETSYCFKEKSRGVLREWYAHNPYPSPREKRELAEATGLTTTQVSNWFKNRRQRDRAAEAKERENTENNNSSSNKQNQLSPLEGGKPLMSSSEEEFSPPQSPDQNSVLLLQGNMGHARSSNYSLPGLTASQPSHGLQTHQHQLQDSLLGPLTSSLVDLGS
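Six1/Eya2 binding was read as AlphaScreen signal after compounds were pinned into GST-Six1 plus His-tagged Eya2 (5X stock 250/500 nM) in pH 8.0 Tris/NaCl/TCEP buffer, beads added, then incubated 1 h, 37 C, dark.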
TRPML1 agonist – qHTS for Agonists of the Human Mucolipin Transient Receptor Potential 1 (TRPML1); activation, % (test concentration not listed); TRPML1-expressing cells, Ca2+ dye fluorescence, FDSS; host cell line not named in the record; reference of the full effect not given here; actives 0.12% (n = 410,000); in the data active = activation above about 50%; inconclusive = about 30% to 50%; inactive = below about 30%; also: 0% is about no effect; the text of the record puts the active cut at 80%
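Agonist activity was taken from a 110 s kinetic Ca2+ dye read on the FDSS after pinning compounds onto TRPML1-DL cells. The cells were seeded at 1,500/well with Tet inducer, incubated about 16 h, then dye-loaded at room temperature.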
TRPML1 blocker – qHTS for Inhibitors of the Human Mucolipin Transient Receptor Potential 1 (TRPML1); Mucolipin-1 (Homo sapiens), Q9GZU1; TRPML1-inducible cells, Ca2+ dye fluorescence, FDSS; active compounds read low; inhibition of EC80 agonist-evoked calcium signal; activity change, negative = inhibition, % (concentration not given with the values); actives 0.02% (n = 390,000); AID 624415, 2012; in the data active means activity change below about -50%; inconclusive means about -30% to -50%; inactive means above about -30%;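 also: stimulus is agonist 54-4 at its EC80 concentration; % is scaled to controls: 0 for no effect and ±100 for the full control effect; the text of the record puts the active cut at -80%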
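Tet-induced TRPML1-DL cells loaded with Ca8 no-wash calcium dye were read kinetically on FDSS. Compound addition was followed by EC80 agonist 54-4 (4 uM final); inhibition was read over 110 s.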
D2 ag – Beta-Arrestin HTS for Positive Allosteric Modulators of the Human D2 Dopamine Receptor: Agonists. D(2) dopamine receptor (Homo sapiens), P14416. DiscoveRx PathHunter D2 beta-arrestin, luminescence, 90 min; 100% = 57 uM dopamine signal. activation, % (concentration not given with the values). actives 0.084% (n = 360,000); in the data active = activation above about 40%; inconclusive = about 15% to 40%; inactive = below about 15%; also: compound concentration not given in the record; the text of the record calls up to 30% inactive
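Agonist mode: compounds alone added to overnight-plated D2 PathHunter cells for 90 min at 37 C, with 57 uM final dopamine (EC100) defining full response. Beta-arrestin recruitment detected by chemiluminescent reagent, read after 1 h at ambient temperature.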
PINK1 modulator – A Quantitative High throughput Screen to Identify Chemical Modulators of PINK1 Expression. PINK1 immunofluorescence, high-content cytometry, 24 h. Potency, µM (series often up to 76.6 µM), for the others: at the highest dose activation (PINK1 increase), most hits filed as activators. actives 0.2% (n = 410,000); active = well fitted activation curve with a large enough effect; inconclusive = small, poorly fitted or top-dose-only effect; inactive = flat fitted curve, though single readings scatter; cell line not stated here;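 also: potency is read from the fitted curve at half-maximal effect; % of control where 0% means no effect; nearly all actives have a fitted effect of over 65% in size; a mitochondrial uncoupler was the plate control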
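Readout is PINK1 immunofluorescence, quantified alongside mitochondrial, cell and nuclear markers by laser-scanning microplate cytometry. Cells from a stable line were exposed to compound titrations (5 concentrations) for 24 hours, with CCCP controls.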
D2 potentiator – Beta-Arrestin HTS for Positive Allosteric Modulators of the Human D2 Dopamine Receptor: Potentiators; D(2) dopamine receptor (Homo sapiens), P14416; DiscoveRx D2 beta-arrestin cells, luminescence, 90 min; 100% = 57 uM dopamine signal; potentiation, % (no concentration beside the values); actives 0.23% (n = 360,000); active = potentiation of 50% or more; inconclusive = 30% to 50%; inactive = 30% or less;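 also: compound concentration not given in the record; tested on top of an EC20 dose of dopamine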
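PathHunter D2 cells, attached overnight at 37 deg C, received compound in DMSO plus dopamine at EC20 (50 nM final) for 90 min at 37 deg C. Beta-arrestin recruitment was read as luminescence after 1 h with detection reagent at ambient temperature.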
* = called active by the depositor; ? = inconclusive; nt = not tested or not shown; [ ] = another dose, or the depositor's remark. This is a random part of the collection; about 1% have a hit in one of these screens.

Structure	Six1-Eya2 inh	TRPML1 agonist	TRPML1 blocker	D2 ag	PINK1 modulator	D2 potentiator
CCN(Cc1ccccc1)C(=O)CCc1nc(-c2ccc(C)cc2)no1	13.7	1.0	-7.8	-2.2	4.1%	-11.3
COc1ccc(/C=C/C(=O)C2C(=O)C=C(C)OC2=O)cc1O (stereo unspecified)	-22.2	3.6	6.8	1.7	-1.3%	12.5
COc1cccc(NC(=O)c2c(C)oc3nc(C)nc(N4CCCC4)c23)c1	nt	1.8	16.3	nt	10.9%	nt
CCOc1ccc(N(CCCCO)C(=S)NC(=O)c2ccc(C)c(Br)c2)cc1	-5.8	0.9	6.3	-0.5	-0.9%	-8.2
Cc1c(C(=O)OCC(=O)N2CCN(c3ccccc3)CC2)oc2ccccc12	-11.9	2.5	18.6	0.6	2.2%	-0.6
CSc1ccc(NC(=O)N2CC=C(n3c(=O)[nH]c4ccccc43)CC2)cc1	-15.1	-0.5	1.6	5.9	?	-12.8
CCOC(=O)C1(Cc2ccccc2)NC(c2ccccc2F)C2C(=O)N(CC)C(=O)C21 (stereo unspecified)	5.3	1.2	-1.7	-3.6	-1.8%	-0.9
O=C(NCC1CCCO1)c1ccc(CSCc2cccc(F)c2)o1 (stereo unspecified)	-2.0	1.6	9.5	-1.2	0.1%	-5.3
CCN1C(=O)N2C[C@H]3CON(C)[C@H]3C[C@H]2c2ccccc21	-8.3	-0.1	nt	-3.0	2.3%	-1.8
COc1ccc(S(=O)(=O)Nc2ccc3c(c2)C(=O)N([C@H](C)CO)C[C@H](C)[C@@H](CN(C)C(=O)Nc2ccccc2)O3)cc1	-1.3	0.5	11.9	-4.4	0.0%	-6.9
COCCn1c(SCC(=O)N2CCCC2)nnc1-c1ccco1	-0.8	0.0	0.4	-3.4	0.2%	7.5
COc1ccc(Nc2ncnc3sccc23)cc1	-1.9	-0.1	13.6	2.0	-0.9%	-3.3
COC(=O)[C@@]1(C)[C@H]2C(=O)N(Cc3ccccc3)C(=O)[C@H]2[C@H]2CN=C(SCc3ccccc3)N21	-22.7	-0.8	-3.5	-1.9	5.6%	-2.9
Cc1cc(NC(=O)CN(C)S(=O)(=O)c2cnc[nH]2)ccc1Br	1.6	0.4	-7.7	-0.2	-0.9%	-11.6
O=C(COc1ccccc1)NCC(=O)N/N=C/c1ccc(Cl)cc1	-1.6	0.7	-3.4	-2.0	2.6%	-6.3
Cc1cc(=O)[nH]c(NN=C2CCCCC2C)n1 (stereo unspecified)	3.7	-0.1	-1.7	-2.5	0.3%	-3.8
COc1ccc(C(=O)CC(=O)C(=O)Nc2ccc(C)c(C)c2)cc1	-13.3	-0.8	4.9	2.2	1.1%	-16.0
CC(C)CNC(=O)C(=O)NC1CCCC1	5.1	0.3	-5.0	-0.2	3.0%	-20.8
Cc1c(NC(=O)c2ccc3c(c2)OCO3)c(=O)n(-c2ccccc2)n1C	-13.4	0.6	16.1	-3.2	nt	-3.6
Cc1ncc([N+](=O)[O-])n1CC(=O)Nc1ccc2c(c1)OCO2	1.5	-0.7	-1.6	-2.0	0.2%	0.5
COc1ccc2oc(-c3cccc(NC(=O)c4ccc(C#N)cc4F)c3)nc2c1	nt	1.1	-8.6	nt	3.0%	nt
O=C(Nc1ccncc1)Nc1cccc(Cl)c1Cl	-5.0	1.6	21.2	13.1	-0.3%	-39.3
O=C(CN1C(=O)c2ccccc2S1(=O)=O)N1CCOCC1	4.8	0.0	7.1	-1.7	-2.6%[38.3 µM]	-18.5
COc1ccc(Cc2noc(=O)[nH]2)cc1	21.9	0.5	17.8	-4.7	-1.1%	-6.3
N#C/C(=C/c1ccc(Cl)cc1)NC(=O)c1ccccc1	7.8	0.0	14.4	1.6	3.5%	-7.4
O=C(c1ccccc1)c1ccc(OC(=O)N2CCOCC2)cc1	5.0	1.4	-2.8	-1.9	2.0%[38.3 µM]	-12.3
CCOC(=O)c1sc(NC(=O)C2c3ccccc3Oc3ccccc32)c(C#N)c1C	nt	-0.9	-19.3	nt	-0.4%	nt
Cc1ccc(CNC(=O)CCC(=O)n2ncc3cc(C)ccc32)cc1	2.0	0.0	-6.8	-4.6	3.7%	-2.3
Cc1ccc(-n2nnc(-c3cc4ccccc4nc3Cl)n2)cc1	-0.4	0.4	56.8	-2.9	0.1%	-11.0
O=C(CSc1ccc(Br)cc1)NCC(c1ccco1)N1CCCCC1 (stereo unspecified)	1.5	0.0	0.1	-4.3	2.0%	3.1

Entries listed so far with a cyano group:
Structure	Six1-Eya2 inh	TRPML1 agonist	TRPML1 blocker	D2 ag	PINK1 modulator	D2 potentiator
COc1ccc2oc(-c3cccc(NC(=O)c4ccc(C#N)cc4F)c3)nc2c1	nt	1.1	-8.6	nt	3.0%	nt
N#C/C(=C/c1ccc(Cl)cc1)NC(=O)c1ccccc1	7.8	0.0	14.4	1.6	3.5%	-7.4
CCOC(=O)c1sc(NC(=O)C2c3ccccc3Oc3ccccc32)c(C#N)c1C	nt	-0.9	-19.3	nt	-0.4%	nt

The results go on:
Structure	Six1-Eya2 inh	TRPML1 agonist	TRPML1 blocker	D2 ag	PINK1 modulator	D2 potentiator
COc1ccc2c(C)cc(SCC(=O)NC3CCCC3)nc2c1	-1.9	-1.9	20.4	-3.3	1.2%	-4.2
C=CCOc1ccc(/C=N/Nc2ccccn2)cc1OC	-4.2	2.9	34.9	10.0	3.9%	4.4
COc1cc(NC(=O)c2noc3c2CCCC3)c(OC)cc1Cl	-12.3	1.3	-2.6	-2.2	?	-4.3
CC(=O)c1ccc(N/N=C(/C(N)=O)C2=NC(C)(C)Cc3ccccc32)cc1	?	1.7	31.1	-9.5	-5.7%	2.1
Cc1cc(C)cc(CSc2nnc(C)c(=O)[nH]2)c1	3.4	1.4	18.1	-1.3	-2.4%	-0.6
CC1CCCCN1C(=O)COC(=O)c1ccc2c(c1)C(=O)N(Cc1ccco1)C2=O (stereo unspecified)	-0.2	2.2	-14.3	-3.6	-0.2%	-6.2
CCN(CC)C(=O)CSc1nnc(-c2cc(OC)cc(OC)c2)o1	-7.8	0.4	-3.0	-2.6	-3.5%[38.3 µM]	1.8
CC(=O)Cc1nsc(NC(=O)c2ccc(-c3ccc(F)cc3)o2)n1	-5.3	0.5	-22.1	0.0	0.6%	2.9
CC(C)NC(=O)COc1coc(CN2CCN(c3ccccc3F)CC2)cc1=O	1.1	-0.9	2.0	2.6	-1.0%	-2.5

Reprinted at random: 2 entries already listed, in no set order.
Structure	Six1-Eya2 inh	TRPML1 agonist	TRPML1 blocker	D2 ag	PINK1 modulator	D2 potentiator
CC1CCCCN1C(=O)COC(=O)c1ccc2c(c1)C(=O)N(Cc1ccco1)C2=O (stereo unspecified)	-0.2	2.2	-14.3	-3.6	-0.2%	-6.2
O=C(CSc1ccc(Br)cc1)NCC(c1ccco1)N1CCCCC1 (stereo unspecified)	1.5	0.0	0.1	-4.3	2.0%	3.1
